Assay outcomes as filed in PubChem BioAssay.
gsp agonist: activates gsp, the McCune-Albright syndrome mutation; gsp mutant cells, cAMP HTRF, 30 min; control for the full effect not named in the record; 340,000 compounds, 0.13% hits; Potency, µM (top dose mostly 76.9 µM), for the others: at the top dose activation (cAMP increase), usual class: activators; active = well fitted activation curve with a large enough effect; inconclusive = small, poorly fitted or top-dose-only effect, or another doubt; inactive = no such curve, though single readings can be large or run the other way; cell line not stated here;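 further: phosphodiesterase inhibitor Ro 20-1724 added with compounds to block cAMP breakdown; potency means the concentration at half of the fitted maximal effect; nearly all actives have a fitted effect of over 60% in size; about a fifth of the inactives were tested at one dose only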
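Cells stably selected in G418 were plated at 2000/well, grown 16-24 hr, then given compounds in DMSO with the PDE inhibitor […] (300 uM solution added) for 30 min at 37C; cAMP was read by HTRF.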
Menin MLL FP FL: menin-MLL binding inhibition, fluorescein peptide | Fluorescence polarization, fluorescein-MLL peptide displacement from menin | FP activity change, % at 61.4 µM | 290,000 tested, under 10 active; inconclusive = falling polarisation curve, or a change in total fluorescence; inactive = total fluorescence flat and polarisation flat or rising; no compound was filed as active; the % refers to the polarisation; negative = inhibition;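 further: % of control where 0% means no effect; inhibitors lower the polarisation; unlabelled MLL peptide was the positive control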
gsp antag: antagonizes gsp, the McCune-Albright syndrome mutation; Potency, µM (highest dose often 76.9 µM), for the others: at the highest dose activity change, negative = inhibition, actives largely listed as inhibitors; 340,000 compounds, 0.4% hits; gsp-mutant cells, cAMP HTRF, 30 min; control for the full effect not named in the record; active = falling curve of any shape with a large fitted effect; inconclusive = falling curve, mostly with a smaller effect; inactive = flat or rising curve; cell line not stated here;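 further: intracellular cAMP measured with PDE inhibitor Ro 20-1724 present during compound exposure; potency means the concentration at half of the fitted maximal effect; on the % scale 0 is the no-effect control and ±100 the full control effect; nearly all actives have a fitted effect of over 65% in size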
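G418-selected cells were plated in DMEM/10% FBS for 16-24 h at 37C, then treated with compounds plus the PDE inhibitor […] (300 uM solution added) for 30 min at 37C. Intracellular cAMP was measured by HTRF after 30 min lysis at room temperature.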
TRPML1 blocker: inhibitors of human TRPML1 channel; Q9GZU1; TRPML1-inducible cells, Ca2+ dye fluorescence, FDSS; active compounds read low; inhibition of EC80 agonist-evoked calcium signal; activity change, negative = inhibition, % (no concentration beside the values); 390,000 compounds, 0.02% hits; AID 624415; in the data active means activity change below about -50%; inconclusive means about -30% to -50%; inactive means above about -30%;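 further: stimulus is agonist 54-4 at its EC80 concentration; on the % scale 0 is the no-effect control and ±100 the full control effect; compound concentration not given in the record; the text of the record puts the active cut at -80%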
Target sequence (Q9GZU1 whole entry, looked up): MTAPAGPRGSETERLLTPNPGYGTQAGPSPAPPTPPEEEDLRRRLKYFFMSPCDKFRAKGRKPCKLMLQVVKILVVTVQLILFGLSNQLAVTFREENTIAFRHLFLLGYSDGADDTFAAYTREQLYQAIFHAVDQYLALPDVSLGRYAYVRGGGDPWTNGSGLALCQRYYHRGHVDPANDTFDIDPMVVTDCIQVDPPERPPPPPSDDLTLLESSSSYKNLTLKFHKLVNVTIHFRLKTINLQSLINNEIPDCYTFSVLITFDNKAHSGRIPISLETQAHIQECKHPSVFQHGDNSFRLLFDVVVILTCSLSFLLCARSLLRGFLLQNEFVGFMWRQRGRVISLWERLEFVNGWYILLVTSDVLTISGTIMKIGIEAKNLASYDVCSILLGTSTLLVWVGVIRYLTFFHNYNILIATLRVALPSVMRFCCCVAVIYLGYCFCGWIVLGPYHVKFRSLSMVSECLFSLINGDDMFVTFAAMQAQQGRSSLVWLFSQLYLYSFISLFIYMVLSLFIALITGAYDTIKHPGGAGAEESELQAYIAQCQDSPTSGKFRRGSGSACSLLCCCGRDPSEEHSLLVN
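Tet-induced TRPML1-DL cells loaded with Ca8 no-wash calcium dye were read kinetically on FDSS. Compound addition was followed by EC80 agonist 54-4 (4 uM final); inhibition was read over 110 s.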
TRPML1 ag: activates the human TRPML1 channel | TRPML1-expressing cells, Ca2+ dye fluorescence, FDSS; host cell line not named in the record; reference of the full effect not given here | 410,000 compounds, 0.12% hits | AID 624414 | activation, % (concentration not given with the values); in the data active = activation above about 50%; inconclusive = about 30% to 50%; inactive = below about 30%; further: 0% is about no effect; the text of the record puts the active cut at 80%
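Cells: TRPML1-DL, 1X Tet inducer, ~16 h at 37 degrees C/5% CO2. Dye: ABD Ca8 no-wash + quencher, 45-90 min RT. Read: 10 s baseline, compound add, 110 s agonist phase; 54-4 EC80 (4uM final), 110 s antagonist phase.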
ClpP mod: qHTS Assay for Activators of ClpP; ATP-dependent Clp protease proteolytic subunit (Bacillus subtilis (strain 168)), P80244; Potency, µM (doses to about 57.5 µM), inactives show top-dose activity change, negative = active; purified B. subtilis ClpP, FRET peptide cleavage, 20 min; AID 651965, 2013; 340,000 compounds, 1.9% hits; active = well fitted falling curve with a large enough effect; inconclusive = small, poorly fitted or top-dose-only effect; inactive = no such curve, though single readings can be large or run the other way; further: potency means the concentration at half of the fitted maximal effect; the source files actives as falling curves though it sought activators and does not explain the sign; nearly all actives have a fitted effect of over 65% in size; many hits overshoot -100%
Target sequence (P80244 whole entry, looked up): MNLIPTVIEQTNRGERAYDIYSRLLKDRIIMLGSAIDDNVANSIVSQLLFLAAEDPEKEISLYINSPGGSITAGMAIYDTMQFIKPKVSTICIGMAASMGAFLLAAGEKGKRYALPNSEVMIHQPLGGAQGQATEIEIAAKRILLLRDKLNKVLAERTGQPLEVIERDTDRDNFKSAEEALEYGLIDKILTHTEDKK
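FRET quenching reversal measured ClpP activation: 10 microg/mL B. subtilis ClpP at pH 8 with the FRET-FV decapeptide, read at 430 nm after 320 nm excitation. The 20-min minus 0-min signal was scaled between DMSO/no-enzyme wells and ADEP (5.8 microM final).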
* = called active by the depositor; ? = inconclusive; . = no result given; & = joins results of further samples; [ ] = dose if it differs, or a comment.

SMILES	gsp agonist	Menin MLL FP FL	gsp antag	TRPML1 blocker	TRPML1 ag	ClpP mod
O=C(O)Cn1c(=O)c2c3c(sc2n(Cc2ccccc2)c1=O)CCCC3	-20%	-2.7	?	12	2.9	-0.1%
CCOc1ccc(NC(=O)c2c(C)nn(-c3ccc(F)cc3)c2-n2cccc2)cc1	.	.	.	6	4.8	13%
CNS(=O)(=O)c1ccc2nc(NC(=O)/C=C/c3ccco3)sc2c1	-29%	?	-5%	-8	0.4	?
O=c1n(-c2cccc(Cl)c2)c(=O)n2n1CCC2	-27%	-0.3	10%	14	0.3	-1.7%
O=C(CSc1c[nH]c2ccccc12)N1CCOCC1	-27%	0.6	12%	3	0.7	-1.1%
O=C(NCc1ccc(Cl)cc1)C1CCN(S(=O)(=O)Cc2ccccc2)CC1	.	.	.	31	-0.5	0.4%
CN(Cc1cccc(-n2cccn2)c1)Cc1cn(C)nc1-c1ccccc1F	-2%[15.4 µM]	0.9	2%	3	-0.4	.
O=c1c2ccccc2nc(-c2cccc(Cl)c2)n1O	16%	0.9	-1%	4	-0.4	-2.1%
COc1ccc(NS(=O)(=O)c2ccc(OC)c3ccccc23)cn1	-2%	-1.7	?	-2	-0.2	-2.7%
Cc1ccc(N2C(=O)C3C(c4ccccc4)(C2=O)C3(c2ccccc2)c2ccccc2)cc1 (centres undefined)	?	-2.4	-13%	-12	0.0	-0.4%
Cc1c(Cl)cccc1NC(=O)N1CCOc2ccccc21	.	.	.	-6	-0.4	-0.2%
CCOc1ccc(-c2cc(C(=O)Nc3ccc(F)cc3)[nH]n2)c(C)c1	.	.	.	-6	-0.2	-3.6%
Cc1cccc(NC(=O)c2cnn(-c3ccccc3)c2-n2cccc2)c1C	.	.	.	47	0.0	-5.3%
S=c1[nH]nc(-c2ccc3ccccc3n2)o1	21%	0.0	-6%	-1	-0.6	4.3%
Nc1c(Br)cc2c([nH]c(=O)c3ccccc32)c1Br	-33%[inhibitor]	.	-4%	-2	1.3	0.7%
O=C(CCS(=O)(=O)c1ccccc1)Nc1nc2ccc(F)cc2s1	-4%[15.4 µM]	.	11%	-3	0.7	0.6%
COc1ccc(C(CNC(=O)c2cccc(NS(=O)(=O)c3ccc(C)c(F)c3)c2)N2CCOCC2)cc1 (centres undefined)	10%[15.4 µM]	.	-17%	16	-0.5	.
Cc1ccc(S(=O)(=O)N2CCC(n3c(C)nc4cccnc43)CC2)c(C)c1	.	.	.	-18	0.6	-1.1%
Cc1ccc(C)c(N2CCN(CCCNC(=O)Cn3c(=O)c4cccn4c4cccnc43)CC2)c1	?	3.9	9%	14	0.9	-18%
Cc1ccc(-n2nnnc2CN2CCCCC2)cc1	-8%[15.4 µM]	-2.5	11%	30	-0.3	.
CC1=C(C(=O)Nc2nc3ccccc3s2)C(c2ccco2)C(C#N)=C(SCC(=O)NC2CCCCC2)N1 (centres undefined)	-4%[15.4 µM]	4.8	-11%	-4	-0.9	-0.3%
CC1N=C(N)C(c2nc3ccccc3n2C)=C1O (centres undefined)	-4%	-9.3	5%	7	0.0	-0.2%
C=CCN1C(=O)N(/C=C/C)c2cccc3cccc1c23	4%	-1.1	-18%	-7	0.5	-1.8%
Cc1cccc(-c2noc(CN(C(=O)COc3ccc(Br)cc3C)C(C)C)n2)c1	.	.	.	18	4.3	-5.0%
COc1ccc(S(=O)(=O)N/N=C\c2ccc(OC)c(COc3ccc(C)cc3[N+](=O)[O-])c2)cc1	-8%	-0.5	-13%	-12	0.3	0.1%

In a second layout: entries from further up
Compound: O=c1n(-c2cccc(Cl)c2)c(=O)n2n1CCC2
  gsp agonist: -27%
  Menin MLL FP FL: -0.3
  gsp antag: 10%
  TRPML1 blocker: 14
  TRPML1 ag: 0.3
  ClpP mod: -1.7%
Compound: CCOc1ccc(-c2cc(C(=O)Nc3ccc(F)cc3)[nH]n2)c(C)c1
  gsp agonist: .
  Menin MLL FP FL: .
  gsp antag: .
  TRPML1 blocker: -6
  TRPML1 ag: -0.2
  ClpP mod: -3.6%

Next compounds follow:
SMILES	gsp agonist	Menin MLL FP FL	gsp antag	TRPML1 blocker	TRPML1 ag	ClpP mod
Cc1nc2ccccn2c1C(=O)NC1CCCc2ccccc21 (centres undefined)	-12%	2.2	1%	1	1.3	-20%
COc1ccc(/C=C/c2nc(C#N)c(NCCN(C)C)o2)cc1OC	2%[15.4 µM]	2.4	-18%	1	-0.4	1.0%
Nc1ccccc1-c1nnc2n1CCCCC2	-5%[15.4 µM]	3.3	14%	-8	-0.2	.
CCOC(=O)CN=C/C(C(=O)Nc1nccs1)=C(/C)O	-5%[15.4 µM]	-7.4	1%	-8	0.0	.
c1ccc(Cn2nc(-c3ccccc3)nc2-c2ccccc2)cc1	-22%	9.2	-12%	13	0.7	2.1%
O=C(O)c1ccccc1NC(c1ccccc1)c1ccc(Cl)cc1 (centres undefined)	18%	-0.2	-9%	11	0.3	4.4%
O=C(CCN1CCc2ccccc2C1)Nc1ccc2c(c1)OCO2	-7%	4.7	14%	-1	0.1	-3.7%
O=C(Nc1ncc2c(n1)-c1ccccc1OC2)c1cccc([N+](=O)[O-])c1	13%[15.4 µM]	0.0	-2%	-8	1.3	-15%
COc1cccc(Nc2nc3ccc(C(=O)c4ccccc4)cc3n3c(C)nnc23)c1	.	.	.	-7	0.2	1.7%
Cc1ccc(CN2CCCn3nc(C(=O)NCc4cc(C)ccc4C)cc3C2=O)cc1	.	.	.	5	3.4	-1.3%
COc1ccc(Nc2cc(Sc3ccc(OC)cc3)ncn2)cc1	8%[15.4 µM]	3.5	-16%	0	-0.5	?
COc1ccc(CCNC(=O)CN(c2cc([N+](=O)[O-])ccc2OC)S(C)(=O)=O)cc1OC	-1%[15.4 µM]	-0.7	2%	-2	1.0	.
COc1ccc2ncc3c(-c4ccc(C)c(C)c4)nn(CC(=O)NC4CCCCC4)c3c2c1	.	.	.	8	0.0	-3.3%
O=C(NCC(c1cccnc1)N1CCOCC1)c1cccc(Cl)c1 (centres undefined)	4%	-4.2	4%	-1	3.0	-0.5%
CCCCn1c(CN(Cc2ccccc2)Cc2ccccc2)nc2c1c(=O)n(C)c(=O)n2C	-5%	.	-7%	9	-0.2	-1.7%
O=C(NNC(=O)c1sccc1-n1cccc1)c1cccs1	-14%	-2.8	14%	3	-0.5	0.8%
Cc1cccc(NC(=O)C2CCCN2S(=O)(=O)c2cccc3nsnc23)c1C (centres undefined)	.	.	.	9	-0.1	1.3%
CCOC(=O)CC(=O)CSc1n[nH]c(=O)[nH]c1=O	6%	3.2	9%	3	0.9	-3.2%
COc1ccc(OCCNS(=O)(=O)c2ccc3oc4ccccc4c3c2)cc1	-30%[inhibitor]	3.7	-12%	-7	-0.1	-4.4%
O=C(NCCCN1CCOCC1)C1CC(=O)N(CCc2ccccc2)C1 (centres undefined)	?	0.3	0%	0	0.7	0.4%
COc1ccc(C(C)=O)cc1COC(=O)CCNS(=O)(=O)c1ccc(C)cc1	-12%[15.4 µM]	.	-4%	-16	2.7	.
CC1(C)CC(=O)c2cnc(NC(=O)CCc3ccccc3)nc2C1	-11%	-0.1	3%	-10	1.3	-2.4%
NC1=NC2(CCCC2)N=C(Nc2ccccc2)N1	-4%[15.4 µM]	2.2	7%	4	0.2	.
N#CCC(=O)N1CCn2c1nc1ccccc12	3%	2.7	7%[15.4 µM]	-20	0.5	-2.8%
OC1CCCN(Cc2nc(Cc3ccccc3Cl)no2)C1 (centres undefined)	17%	0.4	10%	0	1.1	-3.1%
SMILES	gsp agonist	Menin MLL FP FL	gsp antag	TRPML1 blocker	TRPML1 ag	ClpP mod
Cc1ccc(CCNC(=O)c2ccc(CS(=O)(=O)Cc3ccccc3F)o2)cc1	0%	2.7	-23%	-21&-8	1.8&2.7	-1.2%&-0.7%
COc1ccccc1Cn1cnc2cccnc21	-20%	1.4	-5%	19	-1.1	-2.1%
COc1ccc(C(=O)NN=C(Cc2ccccc2)Cc2ccccc2)cc1OC	-1%	1.2	-1%	-2	2.7	1.3%
CCCCCN1C=CC=C/C1=C\C=C(C#N)C#N	0%[15.4 µM]	?	-28%	-1	14	.
CC(=O)Nc1ccc(NC(=O)c2c(-c3ccccc3)noc2C)cn1	?	.	11%	7	1.6	-5.5%
Cc1ccsc1CN(C(=O)c1ccc([N+](=O)[O-])cc1)C1CCS(=O)(=O)C1 (centres undefined)	-3%	.	-3%	-6	-0.4	-3.2%
CN(C)/C=C/C(=O)c1ccc2noc(-c3ccc(F)cc3)c2c1	0%[15.4 µM]	?	-19%	49	-1.2	-2.9%
Cc1ccccc1C(=O)NC(=S)Nc1ccccc1C(F)(F)F	2%	0.7	-5%	-5	0.8	-2.1%
CCN(CC)CCCCOc1ccccc1OC	4%	2.8	-6%	20	-0.1	0.0%
O=C(NN=Cc1ccc2c(c1)OCO2)c1ccccc1	-14%	.	2%	-27	0.1	.
COc1ccc(C(=O)NNC(=O)c2ccc3ccccc3c2)cc1	-9%[15.4 µM]	.	10%	-8	0.1	-3.5%
Cc1cc(C)cc(NC(=O)C(c2ccccc2)N2CCN(CC(=O)N3CCCC3)CC2)c1 (centres undefined)	-7%	.	4%	-7	0.1	-1.2%
CCOc1ccccc1CNC(=O)C1CCN(C(=O)N2CCOc3ccc(Cl)cc32)CC1	.	.	.	-13	1.4	-1.5%
O=C(Nc1nc2cc3c(cc2s1)OCCO3)c1ccco1	5%[15.4 µM]	.	?	36	1.9	-0.1%
O=C1OC(NCc2cccnc2)(c2ccc(Cl)cc2)c2ccccc21 (centres undefined)	-6%[15.4 µM]	-5.9	5%	-13	1.1	1.1%
CCOc1ccc(-c2nc(C#N)c(N3CCOCC3)o2)cc1	-2%	0.9	-14%	44	-1.2	3.9%
COC(=O)Cc1cc(=O)[nH]c(/N=C(\N)Nc2ccc(C)cc2)n1	1%	0.7	-6%	-1	-0.4	0.4%
O=C(CCNC(=O)c1ccc(Cl)cc1)Nc1ccc(F)cc1F	15%[15.4 µM]	2.1	6%	30	1.6	.
CC(C)c1c(O)nc(SCc2ccccc2)[nH]c1=O	4%	1.3	-4%	14	0.1	?
CCOC(=O)C1C(=O)Oc2ccc3ccccc3c2C1C1CCOC1=O (centres undefined)	-5%	1.4	50µM*	14	3.0	3.8%
Cc1cccc(NC(=S)NC(C)(C)CC(C)(C)C)c1	8%	3.5	4%	-6	1.1	.
CCCCCc1ccc(-c2ccc(C(=O)O)cc2)nc1	27%	-1.1	-26%	-6	-0.1	-4.4%
CC1CCCCC1NC(=O)c1cc(S(=O)(=O)N2CCCCC2)ccc1N1CCOCC1 (centres undefined)	15%	.	-6%	12	-1.6	-3.3%
COC(=O)c1ccc(NC(=O)c2ccccc2N(C)S(=O)(=O)c2ccccc2)cc1	?	1.1	-8%	8	-0.6	-1.4%
CC12CCC(=O)N1C(C(=O)N1CCN(c3ccc(C(F)(F)F)cc3[N+](=O)[O-])CC1)CS2 (centres undefined)	-27%	.	7%	7	0.3	-1.7%
